BJeLR viability: MLPCN primary cell-based screen for lethality selective to Ras in HRASV12 cells; BJeLR (HRASV12) viability, CellTiter-Glo ATP luminescence, 48 h; reference of the scale not given here; inhibition, % (concentration not given with the values); 0.17% of 300,000 active; AID 1554, 2009;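 active = replicate mean above 50%; inconclusive = above 50% but judged a plate artefact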;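 note: 50 nL library stock added to about 25 µL; numbers are from one replicate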
Sa ugtP lethal: growth inhibition of ugtP-null S. aureus, primary screen, RN4220 ugtP deletion, OD600. 16 h; some inactives read as strong as hits. growth inhibition, % (concentration not given with the values). 0.54% of 330,000 active. AID 1259309, 2017;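 active = z-score under -3 and OD600 up to 0.15 on both plates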;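 note: plate controls were untreated wells for no effect and antibiotic for full effect; wells of about 80 µL received 100 nL stock; the first replicate is given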
Bead autofluor: flagged as autofluorescent in microsphere protease counterscreen | compound autofluorescence counterscreen, microsphere flow cytometry; active compounds read high | fluorescence intensity (no concentration beside the values) | 3.1% of 360,000 active;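 active = at least 3 SD above the mean of all compounds, about 16000 in these data; inconclusive = too few beads counted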;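 note: 100 nL of 1 mM stock went into each well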
PrP 5UTR inh: inhibition of PrP 5' UTR reporter expression; cell-based PrP 5' UTR mRNA reporter, plate reader; inhibition, % (no concentration beside the values); 0.35% of 340,000 active;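 active = every replicate at 50% or more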;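 note: 0 = median of the neutral control wells; tested in H4 reporter cells; numbers are from one replicate; inactives centre near -14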
RN4220 kill: growth inhibition of S. aureus RN4220, primary screen, OD600; inhibition, % (concentration not given with the values); AID 1259311, 2017; 16 h; 0.33% of 330,000 active;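 active = z-score of -3 or lower and OD600 up to 0.18 on both plates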;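 note: plate controls were untreated cells for no effect and reference antibiotic for full effect; stock transfer was 100 nL into about 80 µL; one replicate is shown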
Mtb hypoxia inh: PubChem AID 1159583; M. tuberculosis hypoxia-regulated fluorescent reporter, fluorescence; fluorescence inhibition, % (no concentration beside the values); 0.1% of 300,000 active;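 active = 35 to 45% if threefold the growth effect, above 45% if 1.5-fold the growth effect; inactive = the rest, general growth blockers included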;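 note: wells of about 50 µL received 100 nL stock; 0% = vehicle wells and 100% = reference inhibitor wells; whole bacteria with a GFP reporter of the hypoxia response; strong numbers were not always called active; many hits fall short of the cut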
Mtb hypoxia inh growth: second read-out of Mtb hypoxia inh, no call of its own (marks repeat the call); growth inhibition, %; measured here: M. tuberculosis growth (absorbance);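 0% = vehicle and 100% = reference antibiotic; read after six days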
Numbers without * were called inactive; ? = inconclusive; nt = not tested or not shown. The order is random; about 4% have a hit in one of these screens.

SMILES	BJeLR viability	Sa ugtP lethal	Bead autofluor	PrP 5UTR inh	RN4220 kill	Mtb hypoxia inh	Mtb hypoxia inh growth
CCc1cc(-c2ccc3c(c2)COc2c4ccccc4nn2-3)on1	11	21	3009	23	6.4	21	8
COc1ccc2c(c1)c(=O)oc1c(C)c(OCc3cc(C(=O)O)oc3C)ccc12	-5	5	3648	-10	4.8	-11	2
O=C(CCCNC(=O)c1ccc(Cl)cc1)Nc1ccc(F)c(S(=O)(=O)N2CCOCC2)c1	nt	-3	8580	-7	3.4	-17	-9
COc1ccc(S(=O)(=O)N/N=C\c2ccc3c(c2)OCO3)c(OC)c1	9	nt	6272	0	nt	nt	nt
Cc1cc(C)c(C)c(S(=O)(=O)N2CCCCC2C(=O)O)c1C (stereo not drawn)	-3	-3	2216	-26	6.6	-15	-11
CC(=NNC(=O)Cc1ccccc1)c1ccc(Cl)s1	nt	4	nt	nt	0.4	5	2
Nc1nnnn1N=Cc1cc([N+](=O)[O-])ccc1O	nt	44	nt	nt	67	7	14
CCN(CC(=O)Nc1cc(Cl)ccc1C)C(=O)CSCc1c(C)noc1C	0	-4	?	12	0.7	-5	-7
COc1ccc(CCC(=O)Nc2ccc3c(c2)OCCO3)cc1	4	-1	3985	-21	5.0	3	6
CCOc1ccc(NC(=O)CNS(=O)(=O)c2c(C)cc(C)cc2C)cc1	-1	-1	7022	-8	-1.6	6	-14
CCOC(=O)c1c(NC(=O)CC)sc(C(=O)N2CCCCC2)c1C	-2	10	6907	-4	5.3	20	13
CC(=O)Nc1cccc2c1C(=O)N(c1cccc(OC(C)=O)c1)C2=O	20	-4	4736	1	4.4	14	5
CCN(CC)S(=O)(=O)c1ccc2c(c1)N(CC(=O)N1CCCC1)C(=O)CO2	-6	2	3026	-1	0.7	-7	-9
CCn1c(Cn2nnc(-c3ccccc3)n2)nnc1SCC(=O)N1CCOCC1	2	1	?	3	4.3	-7	2
CCC(CO)(C(=O)OC1CC2CCC(C1)N2C)c1ccccc1 (stereo not drawn)	-3	13	3173	-12	3.8	-1	-1
C/C(=N\Nc1ccccc1C(=O)O)c1ccncc1	-1	nt	4564	-73	nt	nt	nt
C/C=C/c1ccc(OCCN2CCc3ccccc3C2)c(OC)c1	1	-4	3796	-16	11	11	-2
N#CCC(=O)N1CCCCCC1	-10	0	9793	-19	3.6	-2	2
O=C1C(=O)N(CCCc2ccccc2)c2ccccc21	-3	-1	3109	-22	14	12	13
Cc1nc(C(=O)O)sc1C1(C)CC(c2cccc([N+](=O)[O-])c2)=NO1 (stereo not drawn)	-2	5	3882	-9	7.2	5	15

Reformatted in markdown: part of the list above
| SMILES | BJeLR viability | Sa ugtP lethal | Bead autofluor | PrP 5UTR inh | RN4220 kill | Mtb hypoxia inh | Mtb hypoxia inh growth |
| --- | --- | --- | --- | --- | --- | --- | --- |
| CCc1cc(-c2ccc3c(c2)COc2c4ccccc4nn2-3)on1 | 11 | 21 | 3009 | 23 | 6.4 | 21 | 8 |
| COc1ccc2c(c1)c(=O)oc1c(C)c(OCc3cc(C(=O)O)oc3C)ccc12 | -5 | 5 | 3648 | -10 | 4.8 | -11 | 2 |
| O=C(CCCNC(=O)c1ccc(Cl)cc1)Nc1ccc(F)c(S(=O)(=O)N2CCOCC2)c1 | nt | -3 | 8580 | -7 | 3.4 | -17 | -9 |
| COc1ccc(S(=O)(=O)N/N=C\c2ccc3c(c2)OCO3)c(OC)c1 | 9 | nt | 6272 | 0 | nt | nt | nt |
| Cc1cc(C)c(C)c(S(=O)(=O)N2CCCCC2C(=O)O)c1C (stereo not drawn) | -3 | -3 | 2216 | -26 | 6.6 | -15 | -11 |
| CC(=NNC(=O)Cc1ccccc1)c1ccc(Cl)s1 | nt | 4 | nt | nt | 0.4 | 5 | 2 |
| Nc1nnnn1N=Cc1cc([N+](=O)[O-])ccc1O | nt | 44 | nt | nt | 67 | 7 | 14 |
| CCN(CC(=O)Nc1cc(Cl)ccc1C)C(=O)CSCc1c(C)noc1C | 0 | -4 | ? | 12 | 0.7 | -5 | -7 |
| COc1ccc(CCC(=O)Nc2ccc3c(c2)OCCO3)cc1 | 4 | -1 | 3985 | -21 | 5.0 | 3 | 6 |
| CCOc1ccc(NC(=O)CNS(=O)(=O)c2c(C)cc(C)cc2C)cc1 | -1 | -1 | 7022 | -8 | -1.6 | 6 | -14 |
| CCOC(=O)c1c(NC(=O)CC)sc(C(=O)N2CCCCC2)c1C | -2 | 10 | 6907 | -4 | 5.3 | 20 | 13 |
| CC(=O)Nc1cccc2c1C(=O)N(c1cccc(OC(C)=O)c1)C2=O | 20 | -4 | 4736 | 1 | 4.4 | 14 | 5 |
| CCN(CC)S(=O)(=O)c1ccc2c(c1)N(CC(=O)N1CCCC1)C(=O)CO2 | -6 | 2 | 3026 | -1 | 0.7 | -7 | -9 |
| CCn1c(Cn2nnc(-c3ccccc3)n2)nnc1SCC(=O)N1CCOCC1 | 2 | 1 | ? | 3 | 4.3 | -7 | 2 |
| CCC(CO)(C(=O)OC1CC2CCC(C1)N2C)c1ccccc1 (stereo not drawn) | -3 | 13 | 3173 | -12 | 3.8 | -1 | -1 |
| C/C(=N\Nc1ccccc1C(=O)O)c1ccncc1 | -1 | nt | 4564 | -73 | nt | nt | nt |
| C/C=C/c1ccc(OCCN2CCc3ccccc3C2)c(OC)c1 | 1 | -4 | 3796 | -16 | 11 | 11 | -2 |

(list continues)
SMILES	BJeLR viability	Sa ugtP lethal	Bead autofluor	PrP 5UTR inh	RN4220 kill	Mtb hypoxia inh	Mtb hypoxia inh growth
O=C(O)COc1ccccc1C=NNC(=O)Cc1ccccc1	nt	12	nt	nt	4.5	3	11
O=C(Nc1ccc(S(=O)(=O)NCc2ccco2)cc1)c1cccc(F)c1	2	-2	3210	-5	1.7	17	7
COc1ccc(-c2cc(C(=O)NN)n(-c3ccccc3)n2)cc1	-9	1	2056	-12	6.1	5	5
N#Cc1cc([N+](=O)[O-])ccc1NC(=O)CSc1n[nH]c(=O)n1C1CC1	nt	0	4805	-5	4.3	1	8
CC(C)CNS(=O)(=O)c1ccc(S(=O)(=O)NC2CCOC(C)(C)C2)cc1 (stereo not drawn)	2	0	8023	-8	3.3	9	7
N#CC1(NC(=O)COC(=O)c2cc([N+](=O)[O-])ccc2N2CCCC2)CCCCC1	9	1	?	-21	0.7	10	3
CCOC(=O)CNc1nc(Cl)nc(N2CCCCC2)n1	-1	2	3370	-1	1.1	4	9
Cc1cc(-c2ccccc2C(=O)O)on1	-2	-12	8968	0	-0.4	3	9
CCC1Oc2ccc(C)cc2N(Cc2cccc(C)c2)C1=O (stereo not drawn)	-1	57	17288*	-11	-1.6	17	8
Cc1cc(=O)[nH]c(NN=Cc2ccc(F)cc2)n1	nt	3	nt	nt	1.1	5	-6
Fc1ccc(NCc2nnc(SCc3ccccc3)o2)cc1	3	9	4407	-22	7.5	20	11
NC(=O)CCN(C(=O)c1cccc(S(=O)(=O)N2CCc3ccccc32)c1)c1ccccc1	nt	5	3356	-14	5.4	3	2
CC(=O)N1c2ccc(S(=O)(=O)NCCC(=O)N(C)C3CCCCC3)cc2CC1C (stereo not drawn)	8	6	5778	-17	4.7	-4	-5
CN(C)CCN=c1cc(-c2ccccc2)oc2ccc(Cl)cc12	nt	4	4488	-100	4.5	8	5
Cc1nn(-c2ccccc2)c2c1C(c1c(C)[nH]c(C#N)c1C)C(C#N)=C(N)O2 (stereo not drawn)	8	-2	3167	8	-2.7	nt	nt
COC(=O)c1ccc(CN2[C@H](C(=O)OC)C[C@@]3(O)[C@H](O)[C@H](O)[C@H](O)C[C@@H]23)cc1	10	nt	3312	-15	nt	nt	nt
COCCN1Cc2cccc(C(=O)Nc3cccnc3)c2C1=O	nt	-3	4354	-12	0.9	-6	-4
Cn1c(=O)c2c(ncn2CC(=O)NN=C/C(Cl)=C/c2ccccc2)n(C)c1=O	nt	-10	nt	nt	-6.6	-7	3
CCOC(=O)N1CCN(C(=O)/C(=C/c2ccc(F)cc2)NC(=O)c2ccccc2)CC1	-4	3	5786	-3	2.9	3	9
COc1ccc(N2CCN(C3=CC(=O)N(c4cccc(Cl)c4)C3=O)CC2)cc1	4	4	3227	42	9.1	0	3
Cc1ccc(S(=O)(=O)N2CCCCC2)cc1NC(=O)CSCC(=O)O	-4	0	3308	7	2.2	8	3
O=C(O)c1cc(-c2ccccc2Cl)n(-c2cccc(Cl)c2)n1	3	10	3898	-21	-10	0	7
O=C(NCC1CCCN(Cc2cccc(F)c2)C1)c1cccc2ccccc12 (stereo not drawn)	1	8	5806	-27	2.0	-7	-1
O=C(CN1CCN(c2ccc(Cl)cc2[N+](=O)[O-])CC1)N1CCOCC1	-3	5	3592	-3	2.9	8	6
O=C(O)c1cc([N+](=O)[O-])cc([N+](=O)[O-])c1N1CCN(c2cccc(C(F)(F)F)c2)CC1	0	nt	3587	-4	nt	nt	nt
COc1cc2c(=O)n(CCC(=O)NCC3CCCO3)c(=O)n(CC(=O)Nc3ccc(C)c(C)c3)c2cc1OC (stereo not drawn)	-1	11	3559	-20	2.8	-3	4
CCOc1ccc(/C=C/C(=O)c2cc(Br)ccc(=O)c2O)cc1	nt	90*	2600	-9	84	16	6
COc1ccc(N=C2SC(CC(=O)Nc3ccccc3)C(=O)N2CCN2CCOCC2)cc1 (stereo not drawn)	-1	-4	4668	2	1.0	-6	-9
O=C(COc1ccc(S(=O)(=O)N2CCOCC2)cc1)N1CCN(Cc2ccc3c(c2)OCO3)CC1	12	1	11615	-13	1.5	1	5
CC1CCCCC1NC(=O)Cn1nnc(-c2ccc(Cl)cc2)n1 (stereo not drawn)	2	2	6836	-6	0.7	9	0
COc1cc(C)c(S(=O)(=O)NOCc2ccccc2)c(C)c1C	10	17	nt	-16	9.2	10	2
CCOC(=O)CC(NC(=O)Cn1nnc(-c2ccccc2F)n1)c1ccc(OC)cc1 (stereo not drawn)	-9	5	4439	-8	-9.6	12	3
CCOC(=O)NC(=O)/C(C#N)=C/c1ccc(N(C)C)cc1	0	nt	5223	-57	nt	nt	nt
O=C(O)C(c1ccccc1)N1C(=O)c2ccccc2C1=O (stereo not drawn)	1	13	3040	6	0.8	0	-6
CN(CC(=O)Nc1ccccc1Cl)C(=O)COc1cccc2c1OC(C)(C)C2	-2	3	5772	-7	1.8	4	3
O=C(COC(=O)c1ccccc1SCC(=O)N1CCCC1)Nc1ccccc1	0	5	4487	-7	-2.0	7	2
CC(NC(=O)C1CCCN1S(=O)(=O)c1ccccc1)c1ccccc1 (stereo not drawn)	1	21	2671	-4	1.1	9	8
CC(C)Cc1cc(C(=O)NCc2cccnc2)no1	-9	0	5597	-7	-9.0	4	5
CC(=O)c1sc(NC(=O)CSC(C)C(=O)Nc2cc(C)on2)nc1-c1ccccc1 (stereo not drawn)	4	4	5076	-27	5.5	0	2
Cc1ccc(C(=O)N(C)Cc2ccccc2)cc1S(=O)(=O)N1CCOCC1	1	0	5389	-13	0.2	13	7

Record cards, as listed above. Order of values: BJeLR viability | Sa ugtP lethal | Bead autofluor | PrP 5UTR inh | RN4220 kill | Mtb hypoxia inh | Mtb hypoxia inh growth
Results for `O=C(COc1ccc(S(=O)(=O)N2CCOCC2)cc1)N1CCN(Cc2ccc3c(c2)OCO3)CC1` = 12 | 1 | 11615 | -13 | 1.5 | 1 | 5
Results for `COc1cc(C)c(S(=O)(=O)NOCc2ccccc2)c(C)c1C` = 10 | 17 | nt | -16 | 9.2 | 10 | 2

Continuation.
SMILES	BJeLR viability	Sa ugtP lethal	Bead autofluor	PrP 5UTR inh	RN4220 kill	Mtb hypoxia inh	Mtb hypoxia inh growth
O=C(CC1COc2ccccc2O1)NC1CCCCC1 (stereo not drawn)	2	0	2415	-18	-12	nt	nt
O=C(NN=Cc1ccc[nH]1)c1cccnc1	nt	-7	nt	nt	5.7	13	9
COc1ccc(Nc2ccc(C(F)(F)F)cc2[N+](=O)[O-])cn1	-1	7	5119	-8	1.0	8	-12
COc1ccc(-c2onc(C)c2-c2ccc3c(c2)OCCO3)c(O)c1	6	7	3344	10	2.7	15	7
COc1cccc(-c2noc(-c3ccoc3C)n2)c1	-1	11	4179	-75	2.5	5	1
CC1CC(C)CN(C(C)C(=O)Nc2cc(S(=O)(=O)N3CCCCC3)ccc2Cl)C1 (stereo not drawn)	nt	-9	3526	-11	-1.4	-17	6
CCOC(=O)c1ccc(Nc2cc(C)nc3nc(C)nn23)cc1	-7	4	5995	-1	1.6	-2	1
Cc1nn(C)cc1S(=O)(=O)Nc1cccc(Cl)c1	8	-9	5108	-12	3.0	13	2

Assay outcomes from PubChem.
